RecA intein inh: Mtb RecA intein splicing inhibition. cell-free RecA intein splicing, fluorescence. inhibition, %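 (about 9 µM by stock and volumes)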. 290,000 compounds, 0.75% hits; in the data active = inhibition above about 30%; inconclusive = no clear call, values can overlap the other calls;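 note: 0% = vehicle wells and 100% = reference inhibitor control wells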
Target sequence (P9WHJ3 whole entry, looked up): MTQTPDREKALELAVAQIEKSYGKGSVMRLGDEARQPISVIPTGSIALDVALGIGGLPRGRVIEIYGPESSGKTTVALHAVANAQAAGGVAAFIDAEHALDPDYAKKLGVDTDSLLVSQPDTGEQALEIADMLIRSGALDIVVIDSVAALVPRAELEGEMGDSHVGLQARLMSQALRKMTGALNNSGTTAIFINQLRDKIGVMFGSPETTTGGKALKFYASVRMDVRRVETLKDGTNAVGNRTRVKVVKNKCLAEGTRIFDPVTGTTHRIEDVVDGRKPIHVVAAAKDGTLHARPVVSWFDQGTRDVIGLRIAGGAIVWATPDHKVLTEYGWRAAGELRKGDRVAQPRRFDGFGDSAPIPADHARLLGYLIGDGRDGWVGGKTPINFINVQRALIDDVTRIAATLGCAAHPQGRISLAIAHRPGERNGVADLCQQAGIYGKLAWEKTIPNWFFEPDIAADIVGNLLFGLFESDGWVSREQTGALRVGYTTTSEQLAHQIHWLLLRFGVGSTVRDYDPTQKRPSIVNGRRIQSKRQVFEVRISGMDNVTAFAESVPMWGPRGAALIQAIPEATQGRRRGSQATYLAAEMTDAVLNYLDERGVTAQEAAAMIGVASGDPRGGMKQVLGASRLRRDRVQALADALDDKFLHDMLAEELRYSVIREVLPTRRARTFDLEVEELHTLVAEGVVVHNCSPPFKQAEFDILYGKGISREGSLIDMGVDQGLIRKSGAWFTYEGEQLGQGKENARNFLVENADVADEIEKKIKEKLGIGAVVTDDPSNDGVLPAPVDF
Mtb growth: M. tuberculosis H37Rv growth inhibitors, H37Rv strain (AID 1626); M. tuberculosis H37Rv growth inhibition; higher % means a stronger effect; inhibition, % at 10 µM, or IC50 in µM where a hit was titrated; 220,000 compounds, 0.95% hits;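 active = confirmed in a dose series; inconclusive = inhibition above 80% but not taken into the dose series; inactive = below 80% or under 30% at every dose of the series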;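 note: bacteria incubated seven days before Alamar blue readout; 0% = bacteria only wells and 100% = bacteria with antibiotic wells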
YopH PTP inh: blocks Yersinia enterocolitica YopH tyrosine phosphatase | fluorescence Ex485/Em525 | inhibition, %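 (about 10 µM by stock and volumes)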 | 140,000 compounds, 0.16% hits;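 active = inhibition of 50% or more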;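 note: controls were vehicle for no effect and minimum signal wells for full effect; inactives centre near -20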
Arbovirus anti: arbovirus infection inhibition. arbovirus infection cell-based antiviral screen. inhibition, % at 10 µM. 200,000 compounds, 0.37% hits;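 active = inhibition from about 30%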;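 note: bluetongue infection of BSR cells; cell survival read as ATP light after 72 h; 0% = infected wells without compound and 100% = uninfected wells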
Mtb betalactam: beta-lactam sensitization of Mtb H37Rv | M. tuberculosis H37Rv growth with meropenem, percent inhibition; hits of this screen are not shown here | AID 434955 | 330,000 compounds, 0.27% hits | inhibition, % at 25 µM;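 active = about 74% or more and at least 40 points above the plate without the antibiotic, then above 30% in a dose series; inconclusive = first-round hits that could not be retested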;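 note: growth measured after seven days incubation then overnight dye step; 0% = bacteria only wells and 100% = bacteria with antibiotic; twin plates without the antibiotic show which effects depend on it; some results filed as inactive read as strong as hits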
Arbovirus anti repeat: further read-out of Arbovirus anti, marked with its call; inhibition, %; measured here: 10K subset replicate screen; many hits read low in the repeat;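 first of two repeat runs on a subset; 0% = infected and 100% = uninfected wells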
Starred values were filed as active, the others as inactive; ? = inconclusive; nt = no result given. An excerpt; the hit share may differ from the screen's.

SMILES | RecA intein inh | Mtb growth | YopH PTP inh | Arbovirus anti | Mtb betalactam | others
Cc1cccc(C)c1NC(=O)CNC(=O)C(NC(=O)c1ccc(C(C)(C)C)cc1)C(C)C (configuration not stated) | -5.5 | 2.8% | -6.9 | -9.2 | -2.9
CCOc1ccc(Br)cc1S(=O)(=O)Nc1ccccc1N1CCOCC1 | 0.7 | 4.1% | -41.0 | 7.1 | -1.9
O=C(CCc1nc2sc3c(c2c(=O)[nH]1)CCCC3)NCCc1ccccc1 | -3.7 | nt | nt | nt | -5.4
Cc1ccc(C(=O)c2oc3ccccc3c2NC(=O)c2cc(-c3cc(C)ccc3O)n[nH]2)cc1 | -0.5 | 18.1% | nt | nt | 97.1
COc1ccc(CC2NCCC3(O)CCCCC23)cc1 (configuration not stated) | 4.2 | -5.4% | -33.8 | -7.7 | -0.8
Cc1ccc(NC(=O)COc2ccc(-n3ccnc3)cc2)cc1Cl | -2.9 | 3.82µM* | -16.5 | 8.3 | 100.0
CC(=O)c1ccc(N(C(=O)CNC(=O)c2ccco2)C(C(=O)NC2CCCC2)c2ccncc2)cc1 (configuration not stated) | -2.5 | nt | nt | nt | -3.6
COc1ccc(CNC(=O)C2CCCN(S(=O)(=O)c3ccc4c(c3)CCCN4C(C)=O)C2)cc1 (configuration not stated) | 3.0 | nt | nt | nt | -3.7
OC(COCCC12CC3CC(CC(C3)C1)C2)CN1CCCC1 (configuration not stated) | -0.5 | 9.0% | nt | -7.9 | -1.3
O=C(Nc1nc(-c2cc(Cl)sc2Cl)cs1)c1ccc(Br)s1 | -1.4 | 1.5% | -9.9 | 1.9 | 3.0
COc1ccccc1N=NC1C(=O)N(C(N)=S)N=C1C (configuration not stated) | 1.3 | nt | nt | nt | 28.3
CCOc1ccc(N=C(C)C2=C(O)c3ccccc3C2=O)cc1 | 1.1 | 4.7% | nt | nt | -1.1
O=c1[nH]c(-[n+]2ccccc2)c(/C=N/NC([S-])=Nc2ccccc2)s1 | -1.1 | -5.4% | nt | nt | 4.1
O=Cc1c(N2CCC3(CC2)OCCO3)nc2ccccn2c1=O | -0.6 | -3.4% | nt | nt | -2.3
COc1cc(/C=N/NC(=O)c2ccccc2)ccc1O | -2.1 | -1.6% | nt | 4.2 | 5.5
CN(C)c1ccc(C(c2ccc(N(C)C)cc2)c2ccc([N+](=O)[O-])cc2)cc1 | nt | -4.0% | nt | nt | 3.5
CC(=O)c1cccc(NC(=O)c2ccc(OC3CSC3)cc2)c1 | -3.1 | -4.9% | nt | 2.7 | -5.2
CC(=O)N=c1c(C#N)cc2c(=O)n3cccc(C)c3nc2n1CCCOC(C)C | -355.9 | 7.0% | nt | nt | -1.8
CCNC(=S)N1CCC(c2nc3ccccc3s2)CC1 | -1.1 | -0.9% | -24.9 | 4.5 | 1.8
O=C(Nc1cccc(S(=O)(=O)N2CCCCCC2)c1)C1CCC1 | 0.4 | nt | nt | nt | -0.3
O=C(O)/C=C\C(=O)Nc1cc(O)ccc1[N+](=O)[O-] | -1.9 | 0.4% | nt | nt | -9.4
CCOC(=O)CSc1nc2cc(C(=O)N3CCC(C(N)=O)CC3)ccc2c(=O)n1C1CCCCC1 | nt | -6.2% | nt | 2.6 | -1.6
Cc1ccc(-c2nc(C3CCN(S(=O)(=O)c4ccc(C(C)(C)C)cc4)CC3)no2)cc1 | -1.5 | 9.5% | -44.7 | -17.3 | 1.6
Cc1ccc(Oc2ccccc2/C=C/C(=O)O)cc1 | -2.6 | -8.8% | -30.1 | 11.5 | ?
CCN(CC)CCn1c(=S)[nH]c2cc(Cl)ccc2c1=O | 0.4 | -1.7% | -42.4 | 5.6 | -14.0

2 consecutive entries from above:
SMILES | RecA intein inh | Mtb growth | YopH PTP inh | Arbovirus anti | Mtb betalactam | others
Cc1ccc(Oc2ccccc2/C=C/C(=O)O)cc1 | -2.6 | -8.8% | -30.1 | 11.5 | ?
CCN(CC)CCn1c(=S)[nH]c2cc(Cl)ccc2c1=O | 0.4 | -1.7% | -42.4 | 5.6 | -14.0

Among those listed so far, these have a halogen:
SMILES | RecA intein inh | Mtb growth | YopH PTP inh | Arbovirus anti | Mtb betalactam | others
CCOc1ccc(Br)cc1S(=O)(=O)Nc1ccccc1N1CCOCC1 | 0.7 | 4.1% | -41.0 | 7.1 | -1.9
Cc1ccc(NC(=O)COc2ccc(-n3ccnc3)cc2)cc1Cl | -2.9 | 3.82µM* | -16.5 | 8.3 | 100.0
O=C(Nc1nc(-c2cc(Cl)sc2Cl)cs1)c1ccc(Br)s1 | -1.4 | 1.5% | -9.9 | 1.9 | 3.0
CCN(CC)CCn1c(=S)[nH]c2cc(Cl)ccc2c1=O | 0.4 | -1.7% | -42.4 | 5.6 | -14.0

Back to the main list with the two entries that preceded the break.
SMILES | RecA intein inh | Mtb growth | YopH PTP inh | Arbovirus anti | Mtb betalactam | others
Cc1ccc(Oc2ccccc2/C=C/C(=O)O)cc1 | -2.6 | -8.8% | -30.1 | 11.5 | ?
CCN(CC)CCn1c(=S)[nH]c2cc(Cl)ccc2c1=O | 0.4 | -1.7% | -42.4 | 5.6 | -14.0
N#C/C(=C\c1cccnc1)c1nc2ccccc2[nH]1 | -1.2 | 18.4% | nt | nt | 60.1
O=C(NC(=S)Nc1ccc(Oc2ccc(Cl)cc2)cc1)c1ccccc1 | -0.3 | 72.6% | -41.7 | -20.5 | 73.2
CN(Cc1ccco1)S(=O)(=O)c1cc(F)ccc1CN1C(=O)c2cccnc2C1=O | -2.8 | nt | nt | nt | 7.4
COc1ccc(C2=NN(C(=O)CN3CCCC3)C(c3ccc(OC)cc3)C2)cc1 (configuration not stated) | 1.8 | 0.2% | nt | nt | -6.3
CCn1c(NCc2c[nH]c3ccccc23)nc2ccccc21 | 2.8 | -11.4% | -19.2 | nt | -5.1
COc1ccc(-c2nc(CCNC(=O)c3ccc(Br)o3)cs2)cc1 | 8.0 | 19.9% | 3.4 | -18.8 | -1.7
CN(Cc1ccc(C(F)(F)F)cc1)C(=O)c1ccc(Oc2ccccc2)cc1 | 9.9 | nt | nt | nt | 5.9
Cc1cc(C)n2c(SCC(=O)NCc3ccco3)nnc2n1 | 8.7 | 1.2% | -39.7 | 3.5 | 1.9
CC(NC(=O)COc1ccccc1)C(c1ccccc1)N1CCN(C)CC1 (configuration not stated) | 1.1 | -1.4% | -14.4 | 22.1 | 0.1 | Arbovirus anti repeat=16.4
Cc1[nH]c2ccccc2c1/C=N/Nc1nc(Nc2ccc(F)cc2)nc(N2CCOCC2)n1 | -1.4 | 70.9% | -10.9 | -44.5 | 95.1
COc1cc2ncnc(Nc3ccc4c(c3)OCO4)c2cc1OC | -0.5 | nt | nt | nt | -2.6
COC(=O)c1sc2ccccc2c1C(=O)OC | -0.5 | -7.4% | -39.0 | 1.7 | nt
CCCN(CC(=O)Nc1ccccc1C)C(=O)COc1ccc2c(c1)CCC2 | 0.7 | nt | nt | nt | 4.6
COc1ccc(CCNC(=O)C(=O)NCC2OCCN2S(=O)(=O)c2ccc(F)cc2)cc1OC (configuration not stated) | -5.0 | nt | nt | nt | 4.1
C=CCNc1nnc(Cl)c2ccccc12 | 0.1 | 1.4% | -4.5 | -1.0 | 5.5
CCS(=O)(=O)N1Cc2ccccc2CC1C(=O)Nc1nccs1 (configuration not stated) | -0.6 | 8.1% | -5.7 | 3.3 | 8.6
CCn1nc(C)c(NC(=O)/C=C/c2cnn(C)c2C)c1C | -1.1 | -4.8% | -7.3 | 3.1 | -4.6
CC(=O)Nc1ccc(NC(=O)C2c3ccccc3Oc3ccccc32)cc1 | 0.3 | -3.3% | nt | 5.0 | -6.4
CC(C)CCNc1nc2c(c(=O)[nH]c(=O)n2C)n1CC(O)COC(C)C (configuration not stated) | -1.7 | -0.7% | -17.7 | -4.5 | 2.8
CCOc1ncccc1C(=O)OCC(=O)Nc1c(C)cccc1C | -4.0 | nt | -7.3 | -4.1 | -11.1
COc1cc(/C=N/NC(=O)c2cc(-c3ccccc3OC(C)C)nc3ccccc23)ccc1O | 8.2 | -4.7% | -30.3 | 13.4 | -0.5
CCOC(=O)c1c(C)[nH]c(C)c1C(=O)COC(=O)CCOc1ccccc1OC | -1.2 | 1.7% | -37.5 | -0.1 | -1.2
Cn1c(NC(=O)CCc2ccccc2)cc(=O)n(C)c1=O | 0.2 | 9.0% | -45.0 | -1.3 | -8.8 | Arbovirus anti repeat=-3.9

4 compounds from above, sorted by number of heavy atoms, low to high:
SMILES | RecA intein inh | Mtb growth | YopH PTP inh | Arbovirus anti | Mtb betalactam | others
N#C/C(=C\c1cccnc1)c1nc2ccccc2[nH]1 | -1.2 | 18.4% | nt | nt | 60.1
COc1ccc(-c2nc(CCNC(=O)c3ccc(Br)o3)cs2)cc1 | 8.0 | 19.9% | 3.4 | -18.8 | -1.7
COc1ccc(C2=NN(C(=O)CN3CCCC3)C(c3ccc(OC)cc3)C2)cc1 (configuration not stated) | 1.8 | 0.2% | nt | nt | -6.3
COc1cc(/C=N/NC(=O)c2cc(-c3ccccc3OC(C)C)nc3ccccc23)ccc1O | 8.2 | -4.7% | -30.3 | 13.4 | -0.5

Screening data as filed in PubChem.
